Source: PubChem BioAssay (ICCB-Longwood Screening Facility, Harvard Medical School)
PV pol inh: poliovirus RNA polymerase inhibition; % elongation, % (compound at 16.7 µg/mL); poliovirus polymerase elongation, fluorescence polarization; hits give low values; hit rate 0.66% among 150,000; P03300; in the data active means % elongation below about 90%; further: some results filed as inactive read as strong as hits
Target sequence (P03300 1749-2209 limits assumed): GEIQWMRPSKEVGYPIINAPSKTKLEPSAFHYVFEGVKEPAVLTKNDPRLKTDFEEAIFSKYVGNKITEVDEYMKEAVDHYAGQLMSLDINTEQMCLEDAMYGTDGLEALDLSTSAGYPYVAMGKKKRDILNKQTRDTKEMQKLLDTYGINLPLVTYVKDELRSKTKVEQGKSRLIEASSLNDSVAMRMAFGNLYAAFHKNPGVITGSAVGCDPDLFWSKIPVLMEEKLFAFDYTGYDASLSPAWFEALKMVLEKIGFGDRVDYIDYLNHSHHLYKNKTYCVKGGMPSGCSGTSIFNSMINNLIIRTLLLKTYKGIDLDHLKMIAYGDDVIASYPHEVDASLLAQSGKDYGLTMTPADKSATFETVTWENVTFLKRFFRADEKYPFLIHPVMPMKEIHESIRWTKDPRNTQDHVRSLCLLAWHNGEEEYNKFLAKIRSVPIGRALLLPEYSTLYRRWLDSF
MenB inh: Mtb MenB enzyme inhibition | inhibition, %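 (about 12 µg/mL by stock and volumes)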 | hit rate 0.43% among 100,000 | P9WNP5 | MenB enzyme assay, absorbance read-out; some hits fall short of the stated cut | AID 540299;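 active means mean of two replicates above 30%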;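 further: 0% = no compound and 100% = wells with inactive enzyme; the first replicate is given; strong numbers were not always called active; inactives centre near -10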
Target sequence (P9WNP5 whole entry, looked up): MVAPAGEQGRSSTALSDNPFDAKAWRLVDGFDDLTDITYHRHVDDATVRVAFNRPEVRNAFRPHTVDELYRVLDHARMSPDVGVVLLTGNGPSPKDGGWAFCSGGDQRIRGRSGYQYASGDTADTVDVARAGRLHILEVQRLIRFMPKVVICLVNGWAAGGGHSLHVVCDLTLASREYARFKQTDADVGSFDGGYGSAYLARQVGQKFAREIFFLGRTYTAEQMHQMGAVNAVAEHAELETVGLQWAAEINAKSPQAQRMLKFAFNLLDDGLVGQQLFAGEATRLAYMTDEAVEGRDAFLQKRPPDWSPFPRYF
Mtb MbtI inh: MbtI salicylate synthase inhibition | purified MbtI enzyme, fluorescence intensity read-out | AID 493033 | hit rate 0.89% among 100,000 | P9WFX0 | inhibition, %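 (about 17 µg/mL by stock and volumes)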;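 active means above 50% in both replicates, above 80% if mildly self-fluorescent; inactive means the rest, strongly fluorescent compounds included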;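 further: 0% = mean of negative and 100% = mean of positive controls; one replicate is shown; some compounds called inactive have numbers as strong as hits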
PV pol inh intensity: further read-out of PV pol inh, marked with its call; % elongation; measured here: total intensity read-out; formula for this scale not given here;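 total fluorescence in place of polarization; lower means less elongation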
* hit, by the source's call; i = inactive; . = no result given. Compounds as they come. About 1.8% of those tested had a hit in this group.

Short forms: A = PV pol inh; B = PV pol inh intensity; C = MenB inh; D = Mtb MbtI inh
1	Cc1ccc(CN(Cc2ccco2)S(=O)(=O)c2ccc(S(=O)(=O)NC3CC3)cc2)o1
  A = 101.0 | B = 110.0 | C = -21.2 | D = 3.1
2	Cc1ccc2nc3c(c(C(=O)O)c2c1)CC(C(C)(C)C)CC3 (configuration not stated)
  A = 103.0 | B = 106.0 | C = -15.1 | D = -4.2
3	CCNCc1nc2ccccc2c(=O)[nH]1
  A = 105.0 | B = 111.0 | C = -39.0 | D = -4.0
4	CS(=O)(=O)Nc1ccc(C(=O)CSc2nnc3n2CCCCC3)cc1
  A = 104.0 | B = 108.0 | C = 7.2 | D = 3.7
5	CC1C/C(=N\O)c2ccccc21 (configuration not stated)
  A = 100.0 | B = 103.0 | C = -0.8 | D = 5.2
6	CCC1CN(C(=O)N2CCC(C(=O)N3CCCCC3)CC2)c2ccccc2O1 (configuration not stated)
  A = 100.0 | B = 100.0 | C = 3.1 | D = -6.6
7	Nc1ccc(-c2nnc(-c3ccc(N)cc3)o2)cc1
  A = 97.0 | B = 103.0 | C = 4.0 | D = i
8	CC1CCCN(C(=O)CSc2nc3ccccc3o2)C1 (configuration not stated)
  A = 100.0 | B = 96.0 | C = . | D = -9.1
9	CC1(C)CC(=O)C(C=NCCN2CCNCC2)=C(O)C1
  A = 108.0 | B = 112.0 | C = -5.9 | D = .
10	Cc1ccc(C(=O)N2CCCCC2)cc1NC(=O)C1=CSCCO1
  A = 101.0 | B = 103.0 | C = -8.6 | D = -7.7

An excerpt from above in order of molar mass, falling:
Short forms: A = PV pol inh; B = PV pol inh intensity; C = MenB inh; D = Mtb MbtI inh
10	Cc1ccc(C(=O)N2CCCCC2)cc1NC(=O)C1=CSCCO1
  A = 101.0 | B = 103.0 | C = -8.6 | D = -7.7
9	CC1(C)CC(=O)C(C=NCCN2CCNCC2)=C(O)C1
  A = 108.0 | B = 112.0 | C = -5.9 | D = .
5	CC1C/C(=N\O)c2ccccc21 (configuration not stated)
  A = 100.0 | B = 103.0 | C = -0.8 | D = 5.2

(next part)
Short forms: A = PV pol inh; B = PV pol inh intensity; C = MenB inh; D = Mtb MbtI inh
11	Oc1ccc(-c2ccccc2)cc1O
  A = 102.0 | B = 99.0 | C = -4.7 | D = -38.0
12	O=C(c1ccc2ncsc2c1)N1CCN(c2ccccc2)CC1
  A = 104.0 | B = 104.0 | C = 10.8 | D = 14.4
13	O=C(CN1C(=O)C2CC=CCC2C1=O)NCc1cccc(C(F)(F)F)c1 (configuration not stated)
  A = 101.0 | B = 109.0 | C = -10.1 | D = -14.7
14	Cc1cccc(C(=O)Oc2ccc3oc(=O)sc3c2)c1
  A = 102.0 | B = 100.0 | C = -6.4 | D = 17.9
15	CCN(CC)c1ccc(C=C2C(=O)N(C)C(=O)N(C)C2=O)o1
  A = 103.0 | B = 106.0 | C = -67.3 | D = -14.8
16	CCn1cc(C(=O)NCCC2=CCCCC2)c(=O)c2cc(S(=O)(=O)N(C)C)ccc21
  A = 99.0 | B = 103.0 | C = -8.6 | D = -4.3
17	Cc1ccc(-n2c(SCC(=O)NC(C)(C#N)C(C)C)nnc2-c2ccccc2)cc1C (configuration not stated)
  A = 105.0 | B = 105.0 | C = -11.1 | D = -4.0
18	CCCN(CCC)C1=C(C(=O)c2ccccc2)N(CC(N)=O)S(=O)(=O)c2ccccc21
  A = 101.0 | B = 98.0 | C = 10.0 | D = 6.5
19	Cc1ccc(S(=O)(=O)N(C)c2ccc(C(=O)N3CCCCC3)cc2)cc1
  A = 104.0 | B = 107.0 | C = -0.6 | D = .
20	CCOC(=O)c1ccc(NC(=O)N2CCC(CN3CCCCCC3)CC2)cc1
  A = 105.0 | B = 100.0 | C = -9.4 | D = 38.0
21	NC(=O)CSc1nccn1Cc1ccccc1
  A = 100.0 | B = 102.0 | C = -29.7 | D = -3.3
22	CN=Cc1ccccc1Br
  A = 103.0 | B = 102.0 | C = -23.1 | D = -2.9
23	COCC(=O)Nc1cc(-c2cn3cccnc3n2)ccc1OC
  A = 102.0 | B = 100.0 | C = -10.3 | D = -195.8
24	CCc1ccc(NC(=O)Cc2coc3ccc(C(C)C)cc23)cc1
  A = 105.0 | B = 102.0 | C = -29.7 | D = -7.3
25	CCc1ccc(-c2cc(C)no2)cc1S(=O)(=O)N1CC(C)Sc2ccccc21 (configuration not stated)
  A = 102.0 | B = 102.0 | C = -0.5 | D = -17.7
26	COc1ccc(C(=O)OCc2nnc(-c3ccccc3)o2)cc1S(=O)(=O)N1CCCCC1C (configuration not stated)
  A = 105.0 | B = 97.0 | C = -37.1 | D = 13.5
27	CC(C)C12CN3CCN(CC(C3)C1=O)C2
  A = 105.0 | B = 108.0 | C = 7.9 | D = .
28	CC(C)(C)c1ccc(S(=O)(=O)NCc2ccc(C(=O)N3CCN(C(=O)c4ccco4)CC3)cc2)cc1
  A = 103.0 | B = 103.0 | C = -18.4 | D = -2.8
29	Nc1c(C(=O)c2ccccc2)no[n+]1[O-]
  A = 91.0 | B = 98.0 | C = -13.4 | D = .
30	CC(=O)NCCNCc1ccc(OCc2csc(C)n2)cc1
  A = 93.0 | B = 94.0 | C = 17.7 | D = -1.9
31	O=C(NCc1ccco1)NCc1c(-c2cccs2)n(Cc2ccccc2)c2ccccc12
  A = 96.0 | B = 109.0 | C = -9.4 | D = 133.1
32	CS(=O)(=O)Nc1ccccc1C(=O)O
  A = 102.0 | B = 103.0 | C = -0.1 | D = -211.4
33	Cc1occc1C(=O)N/N=C/c1ccc(F)c(Br)c1
  A = 98.0 | B = 103.0 | C = -12.2 | D = -3.8
34	CC1Cc2ccccc2N1S(=O)(=O)c1ccc2[nH]c(=O)[nH]c2c1 (configuration not stated)
  A = 99.0 | B = 109.0 | C = 3.3 | D = 5.1
35	Cc1ccc(CN2C(=O)CSc3ccc(NC(=O)NCc4ccccc4)cc32)cc1
  A = 103.0 | B = 100.0 | C = -0.9 | D = -8.2
36	NNC(=O)Cc1nc(-c2ccccc2)cs1
  A = 102.0 | B = 99.0 | C = 5.9 | D = -1.2
37	O=C(NCCOc1cccc2cccnc12)C1CC1
  A = 100.0 | B = 102.0 | C = 0.7 | D = -25.6
38	CCC(NC(=O)Nc1ccccc1C(=O)O)(C(F)(F)F)C(F)(F)F
  A = 99.0 | B = 103.0 | C = -20.1 | D = -202.6
39	CCC(=O)Nc1nc(-c2ccccc2)cs1
  A = 102.0 | B = 106.0 | C = . | D = -8.2
40	CCN(CC)Cc1c(O)ccc2c1O/C(=C\c1ccc(C(=O)OC)cc1)C2=O
  A = 101.0 | B = 120.0 | C = -240.2 | D = 21.0

Laid out differently: 16 of the compounds above.
25: CCc1ccc(-c2cc(C)no2)cc1S(=O)(=O)N1CC(C)Sc2ccccc21 (configuration not stated)
26: COc1ccc(C(=O)OCc2nnc(-c3ccccc3)o2)cc1S(=O)(=O)N1CCCCC1C (configuration not stated)
27: CC(C)C12CN3CCN(CC(C3)C1=O)C2
28: CC(C)(C)c1ccc(S(=O)(=O)NCc2ccc(C(=O)N3CCN(C(=O)c4ccco4)CC3)cc2)cc1
29: Nc1c(C(=O)c2ccccc2)no[n+]1[O-]
30: CC(=O)NCCNCc1ccc(OCc2csc(C)n2)cc1
31: O=C(NCc1ccco1)NCc1c(-c2cccs2)n(Cc2ccccc2)c2ccccc12
32: CS(=O)(=O)Nc1ccccc1C(=O)O
compound no.	25	26	27	28	29	30	31	32
PV pol inh	102.0	105.0	105.0	103.0	91.0	93.0	96.0	102.0
PV pol inh intensity	102.0	97.0	108.0	103.0	98.0	94.0	109.0	103.0
MenB inh	-0.5	-37.1	7.9	-18.4	-13.4	17.7	-9.4	-0.1
Mtb MbtI inh	-17.7	13.5	.	-2.8	.	-1.9	133.1	-211.4

33: Cc1occc1C(=O)N/N=C/c1ccc(F)c(Br)c1
34: CC1Cc2ccccc2N1S(=O)(=O)c1ccc2[nH]c(=O)[nH]c2c1 (configuration not stated)
35: Cc1ccc(CN2C(=O)CSc3ccc(NC(=O)NCc4ccccc4)cc32)cc1
36: NNC(=O)Cc1nc(-c2ccccc2)cs1
37: O=C(NCCOc1cccc2cccnc12)C1CC1
38: CCC(NC(=O)Nc1ccccc1C(=O)O)(C(F)(F)F)C(F)(F)F
39: CCC(=O)Nc1nc(-c2ccccc2)cs1
40: CCN(CC)Cc1c(O)ccc2c1O/C(=C\c1ccc(C(=O)OC)cc1)C2=O
compound no.	33	34	35	36	37	38	39	40
PV pol inh	98.0	99.0	103.0	102.0	100.0	99.0	102.0	101.0
PV pol inh intensity	103.0	109.0	100.0	99.0	102.0	103.0	106.0	120.0
MenB inh	-12.2	3.3	-0.9	5.9	0.7	-20.1	.	-240.2
Mtb MbtI inh	-3.8	5.1	-8.2	-1.2	-25.6	-202.6	-8.2	21.0

(continued)
Short forms: A = PV pol inh; B = PV pol inh intensity; C = MenB inh; D = Mtb MbtI inh
41	CCS(=O)(=O)Nc1cccc(Oc2ccccc2)c1
  A = 103.0 | B = 114.0 | C = -4.5 | D = -8.2
42	C#CCN1C(=O)S/C(=C/c2cc(CC=C)c(O)c(OC)c2)C1=O
  A = 105.0 | B = 106.0 | C = -45.8 | D = -5.3
43	CCCCNS(=O)(=O)c1ccc2c(c1)C(=C(C#N)C#N)c1cc(S(=O)(=O)NCCCC)ccc1-2
  A = 97.0 | B = 105.0 | C = 22.5 | D = -10.8
44	O=C(CCC(=O)c1ccccc1)Nc1ccc(-c2ccccc2)cc1
  A = 100.0 | B = 103.0 | C = -3.9 | D = 1.1
45	CN(C)C(=O)COC(=O)c1ccc(S(=O)(=O)N2CCCc3ccccc32)cc1
  A = 106.0 | B = 108.0 | C = -18.8 | D = -11.6
46	CN(Cc1ccccc1)Cc1csc2c1CCCC2
  A = 102.0 | B = 101.0 | C = -12.4 | D = -0.3
47	Cn1ccnc1C(=O)c1ccc(Cl)c(S(=O)(=O)N2CCOCC2)c1
  A = 105.0 | B = 110.0 | C = -2.7 | D = 1.8
48	O=C(Cc1cccc2ccccc12)Nc1cccnc1
  A = 105.0 | B = 103.0 | C = -3.9 | D = -0.8
49	CC(C)(C)N/N=C/c1ccc(O)c(O)c1O
  A = 108.0 | B = 110.0 | C = -12.4 | D = 24.7
50	CC(Sc1nc2c(cnn2-c2ccc(Cl)cc2)c(=O)[nH]1)c1ccccc1 (configuration not stated)
  A = 100.0 | B = 103.0 | C = -16.2 | D = -15.7
51	Cc1ccc(NC(=O)c2sc3nc4c(cc3c2N)CCCC4)cc1
  A = 102.0 | B = 104.0 | C = -27.7 | D = 13.7
52	O=C1NC(=O)C(=C/C=C/c2ccccc2)C(=O)N1
  A = 104.0 | B = 106.0 | C = -72.6 | D = 77.6*
53	FC1(F)C2CC3CC(C2)CC1C3
  A = 97.0 | B = 99.0 | C = -16.2 | D = 10.4
54	c1ccc(-c2ccc(-c3cn4ccccc4n3)cc2)cc1
  A = 102.0 | B = 103.0 | C = 0.0 | D = -53.6
55	COC(=O)c1cc(Cc2ccc(N)c(C(=O)OC)c2)ccc1N
  A = 99.0 | B = 102.0 | C = 1.3 | D = i
56	O=S(=O)(/C=C/c1ccccc1)Nc1ccc(S(=O)(=O)N2CCOCC2)cc1
  A = 105.0 | B = 109.0 | C = -4.1 | D = 9.8
57	CC1Cc2ccccc2N1C(=O)Nc1ccc2c(c1)OCO2 (configuration not stated)
  A = 100.0 | B = 99.0 | C = -41.0 | D = 0.3
58	COC(=O)C1=C(C)NC2=C(C(=O)CC(c3ccc(N(C)C)cc3)C2)C1c1ccc(O)c(OC)c1 (configuration not stated)
  A = 103.0 | B = 101.0 | C = -60.5 | D = 9.1
59	c1ccc(-c2cc(N3CCCCC3)n3cnnc3n2)cc1
  A = 105.0 | B = 100.0 | C = -3.2 | D = -89.3
60	Cn1c(C(=O)N2CCC(C(=O)N3CCN(Cc4ccc5c(c4)OCO5)CC3)CC2)cc2sccc21
  A = 103.0 | B = 103.0 | C = -12.3 | D = 3.5
61	Cc1cccc(-n2c(C)cc(CNC(=O)NCC3CCCO3)c2C)c1 (configuration not stated)
  A = 102.0 | B = 102.0 | C = 10.1 | D = 3.7
62	CC(=O)Nc1nc2c(Cl)cccc2s1
  A = 100.0 | B = 99.0 | C = -0.9 | D = 1.8
63	CN1C(=O)C(CC(=O)O)c2ccccc21 (configuration not stated)
  A = 98.0 | B = 101.0 | C = -12.0 | D = -1.3
64	CCCC12CN(C(=O)CC)CC(CCC)(CN(C(=O)CC)C1)C2=O
  A = 102.0 | B = 105.0 | C = 7.1 | D = -4.3
65	CN(CC(=O)NCc1ccco1)C(=O)c1ccc(-c2ccc(Cl)cc2)s1
  A = 101.0 | B = 95.0 | C = -28.4 | D = 20.4
66	COc1ccc(/C=C2\SC(=O)N(CCNC(=O)/C=C/c3ccco3)C2=O)cc1
  A = 106.0 | B = 102.0 | C = -11.6 | D = 9.4
